Compound activity (PubChem BioAssay)
ugtP null kill – growth inhibition of ugtP-null S. aureus, primary screen, RN4220 ugtP deletion, OD600; hit rate 0.54% among 330,000; AID 1259309, 2017; growth inhibition, % (concentration not given with the values); 16 h; some inactives read as strong as hits;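 active = z-score under -3 and OD600 up to 0.15 on both plates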;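 also: plate controls were untreated wells for no effect and antibiotic for full effect; wells of about 80 µL received 100 nL stock; the first replicate is given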
PrP 5UTR inh – inhibition of PrP 5' UTR reporter expression. cell-based PrP 5' UTR mRNA reporter, plate reader. inhibition, % (concentration not given with the values). hit rate 0.35% among 340,000;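 active = every replicate at 50% or more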;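 also: 0 = median of the neutral control wells; tested in H4 reporter cells; numbers are from one replicate; inactives centre near -14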
Sa RN4220 lethal – growth inhibition of S. aureus RN4220, primary screen, OD600 | inhibition, % (test concentration not listed) | 16 h | AID 1259311, 2017 | hit rate 0.33% among 330,000;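 active = z-score of -3 or lower and OD600 up to 0.18 on both plates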;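 also: plate controls were untreated cells for no effect and reference antibiotic for full effect; stock transfer was 100 nL into about 80 µL; one replicate is shown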
Mtb hypoxia inh – PubChem AID 1159583; M. tuberculosis hypoxia-regulated fluorescent reporter, fluorescence; fluorescence inhibition, % (test concentration not listed); hit rate 0.1% among 300,000;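 active = 35 to 45% if threefold the growth effect, above 45% if 1.5-fold the growth effect; inactive = the rest, general growth blockers included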;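 also: wells of about 50 µL received 100 nL stock; 0% = vehicle wells and 100% = reference inhibitor wells; whole bacteria with a GFP reporter of the hypoxia response; strong numbers were not always called active; many hits fall short of the cut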
BJeLR lethal – MLPCN primary cell-based screen for lethality selective to Ras in HRASV12 cells | BJeLR (HRASV12) viability, CellTiter-Glo ATP luminescence, 48 h; reference of the scale not given here | inhibition, % (concentration not given with the values) | hit rate 0.17% among 300,000 | AID 1554, 2009;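 active = replicate mean above 50%; inconclusive = above 50% but judged a plate artefact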;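 also: 50 nL library stock added to about 25 µL; numbers are from one replicate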
Bead autofluor – compound fluorescence in toxin protease inhibitor counterscreen; AID 624483; compound autofluorescence counterscreen, microsphere flow cytometry; active compounds read high; fluorescence intensity (test concentration not listed); hit rate 3.1% among 360,000;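 active = at least 3 SD above the mean of all compounds, about 16000 in these data; inconclusive = too few beads counted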;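 also: 100 nL of 1 mM stock went into each well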
Mtb hypoxia inh growth – also measured in Mtb hypoxia inh; calls as there; growth inhibition, %; measured here: M. tuberculosis growth (absorbance);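 0% = vehicle and 100% = reference antibiotic; read after six days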
An asterisk follows results filed as active; ? = inconclusive; · = not tested or not shown; & = joins results of further samples.

item	SMILES	PrP 5UTR inh	Sa RN4220 lethal	Mtb hypoxia inh	Mtb hypoxia inh growth
1	CCOc1ncccc1C(=O)NCCc1ccc(S(N)(=O)=O)cc1	-17	5.9	-1	7
2	COc1ccc(S(=O)(=O)N2CCCC(C(=O)NCc3ccccn3)C2)cc1 (configuration not stated)	-10	3.4	·	·
3	CC(C)CCC(=O)N1CCOC1=O	-11	2.7	9	4
4	CC1(c2nnc(Cc3ccccc3)o2)CC(c2ccc([N+](=O)[O-])cc2)=NO1 (configuration not stated)	-3	6.7	9	5
5	COC(=O)c1[nH]c2cc(OC)c(OC)cc2c1NC(=O)Oc1ccccc1	-26	0.5	·	·
6	O=S(=O)(CCN1CCCCC1)CCS(=O)(=O)CCN1CCCCC1	-26	5.1	1	8
7	CCOc1cc(C=NNC(=O)C(=O)NCc2cccnc2)ccc1O	·	12	-7	0
8	Cc1cc(Cl)ccc1OCC(=O)OC(C)C(=O)N(C)C (configuration not stated)	-28	5.9	-2	8
9	Cc1c(Cl)cccc1NC(=O)C(=O)NNS(=O)(=O)c1ccc(F)cc1	-20	4.5	12	5
10	Cc1cc([N+](=O)[O-])cnc1NC(C)c1ccccc1 (configuration not stated)	-6	1.5	6	-4
11	CC1=CC(C)(C)N(C)C(=O)N1c1ccc(Cl)cc1	-10	0.7	·	·
12	Cc1cccc(Cn2cnc3c(N)c(C)c(C)cc32)c1	-24	9.3	3	6

item	ugtP null kill	BJeLR lethal	Bead autofluor
1	10	0	5266
2	-8	9	4478
3	0	-5	4241
4	1	-10	2983
5	-2	-2	2681
6	-8	·	4340
7	6	·	·
8	2	5	4569
9	-1	-6	?
10	9	-4	6910
11	0	-6	3453
12	3	6	3558

New compounds follow
item	SMILES	PrP 5UTR inh	Sa RN4220 lethal	Mtb hypoxia inh	Mtb hypoxia inh growth
13	Cc1ccccc1NC(=O)Cc1nc(COC(=O)COc2cccc(C)c2C)cs1	-15	3.7	0	0
14	CCN(CC)S(=O)(=O)c1ccc2c(c1)nc(CCC(=O)Nc1ccc(N3CCOCC3)cc1)n2C	-19	8.8	5	5
15	CCCc1[nH]n(-c2ccc(F)cc2)c(=O)c1C=Nc1cccc(F)c1	-29	-0.5	12	1
16	Cc1ccc(S(=O)(=O)n2ccc3c2CCCC3=O)cc1	-22	5.4	-5	5
17	COc1cccc(-c2cc3c(-n4cccc4)ncnc3o2)c1	-27	-8.3	·	·
18	O=[N+]([O-])c1cc(-c2nnc(Nc3ccccc3)c3ccccc23)ccc1N1CCOCC1	-13	7.7	-3	-8
19	CCNC(=O)NC(=O)C(C)OC(=O)CCCSc1nc2ccccc2s1 (configuration not stated)	4	2.2	-1	4
20	C(=N\Nc1ccccn1)/c1c[nH]c2ccccc12	-77	·	·	·
21	Cc1ccc(-c2cc(C(=O)Nc3ccccc3C(N)=O)c3ccccc3n2)o1	·	1.1	13	11
22	COc1cccc(NC(=O)C(OC(=O)/C=C/c2ccc3c(c2)OCO3)c2ccccc2)c1 (configuration not stated)	-10	-0.3	0	-5
23	NC(=O)c1ccccc1NC(=O)CCCc1ccccc1	-20	3.7	7	4
24	CC(=O)/C(=N/Nc1ccc(C)cc1)Sc1nnc(CCc2ccccc2)n1-c1ccccc1	-14	·	·	·

item	ugtP null kill	BJeLR lethal	Bead autofluor
13	-3	-9	?
14	12	4	4405
15	-3	-5	2544
16	10	-4	3557
17	10	2	2884
18	-21	10	1989
19	1	-6	2249
20	·	0	3808
21	-13	-13	·
22	-7	0	?
23	6	-3	4427
24	·	2	2019

Following part.
item	SMILES	PrP 5UTR inh	Sa RN4220 lethal	Mtb hypoxia inh	Mtb hypoxia inh growth
25	CC(O)[C@@H](C(=O)N1CCNCC1)n1cc(CCCCN)nn1 (some centres not stated)	-24	·	·	·
26	O=C(CN(C(=O)CNS(=O)(=O)c1ccccc1)c1ccc2c(c1)OCCO2)NCc1ccco1	3	2.9	·	·
27	CC1Cc2ccccc2N1C(=O)COC(=O)Cc1ccc(F)cc1 (configuration not stated)	-24	1.3	8	7
28	Cn1c(S(=O)(=O)O)nc2ccccc21	2	2.2	-8	0
29	COc1ccc(C(=O)N2CCCC(c3ccccc3)=N2)cc1	0	1.9	8	2
30	CC(CC(=O)Nc1cccnc1)=NNC(=O)C(=O)Nc1cccc(C)c1	·	2.9	-2	4
31	O=C(c1cccs1)c1c[nH]cc1-c1ccccc1	·	3.0	-7	-1
32	O=C(Cn1cc(C(=O)c2ccco2)c2ccccc21)NC1CCCCC1	-67	-6.4	8	9
33	COc1ccc(C(=O)Oc2ccc3ccc(=O)oc3c2)cc1OC	-6	2.3	7	-2
34	O=C(O)c1cc(=O)n(Cc2ccccc2)c(=O)[nH]1	-14	1.9	10	1
35	CCOc1cc2[nH]c(=O)n(CCCC(=O)NCc3ccc(OC)cc3)c(=O)c2cc1OCC	-19	2.0	1	8
36	CCc1ccc(NC(=O)Cn2nc(C(=O)O)c3ccccc3c2=O)cc1	3	4.9	-14	1

item	ugtP null kill	BJeLR lethal	Bead autofluor
25	·	2	2944
26	13	-3	4697
27	1	5	·
28	2	4	4210
29	2	1	3816
30	3	·	·
31	14	-7	4547
32	9	5	3903
33	13	-2	2859
34	13	-2	3962
35	-4	-4	10263
36	7	0	3527

Entries above with a halogen, in the order listed:
item	SMILES	PrP 5UTR inh	Sa RN4220 lethal	Mtb hypoxia inh	Mtb hypoxia inh growth
8	Cc1cc(Cl)ccc1OCC(=O)OC(C)C(=O)N(C)C (configuration not stated)	-28	5.9	-2	8
9	Cc1c(Cl)cccc1NC(=O)C(=O)NNS(=O)(=O)c1ccc(F)cc1	-20	4.5	12	5
11	CC1=CC(C)(C)N(C)C(=O)N1c1ccc(Cl)cc1	-10	0.7	·	·
15	CCCc1[nH]n(-c2ccc(F)cc2)c(=O)c1C=Nc1cccc(F)c1	-29	-0.5	12	1
27	CC1Cc2ccccc2N1C(=O)COC(=O)Cc1ccc(F)cc1 (configuration not stated)	-24	1.3	8	7

item	ugtP null kill	BJeLR lethal	Bead autofluor
8	2	5	4569
9	-1	-6	?
11	0	-6	3453
15	-3	-5	2544
27	1	5	·

Next entries:
item	SMILES	PrP 5UTR inh	Sa RN4220 lethal	Mtb hypoxia inh	Mtb hypoxia inh growth
37	CCc1noc(C)c1C(=O)OCC(=O)NC(=O)c1ccccc1OC	-17	-0.8	9	8
38	COc1ccc(S(=O)(=O)N2CCOC2CNC(=O)C(=O)NCCc2ccccc2)cc1C (configuration not stated)	-24	-12	2	1
39	COc1cc(-c2nc3ccccn3c2/N=C/c2cccc(F)c2)ccc1O	-10	·	·	·
40	Cn1c(Cc2cccs2)nnc1SCC(=O)Nc1ccc(C(N)=O)cc1	-16	0.9	-1	-8
41	CSc1cc(-c2ccc(Cl)cc2)c(C(=O)NC(C)C)s1	-18	-3.3	·	·
42	COC(=O)CC1(C(=O)OC)Oc2ccc(Br)cc2C(=O)N1c1cc(Cl)cc(Cl)c1 (configuration not stated)	4	2.2	12	1
43	NC(=O)c1cccnc1OCC(F)(F)F	-6	-2.8	-2	5
44	O=C(CCCC(=O)c1ccccc1)NCc1ccccc1	-7	1.3	0	11
45	Cc1ccccc1C(=O)Nc1ccnn1C1CCN(Cc2cccnc2)CC1	-15	3.3	-1	6
46	O=C(c1ccccc1F)N(Cc1ccccc1)C1CCS(=O)(=O)C1 (configuration not stated)	-5	6.0	·	·
47	COC(=O)CSc1nnc(CNC(=O)c2ccc(OC)c(OC)c2)n1C	-24	3.1	9	5
48	C[C@]12C=CC(=O)C=C1CC[C@@H]1[C@@H]2C(=O)C[C@@]2(C)[C@H]1CC[C@]2(O)C(=O)CO	-11&-7	2.3	12	12

item	ugtP null kill	BJeLR lethal	Bead autofluor
37	7	-11	4179
38	-1	11	5664
39	·	-10	2610
40	9	7	4440
41	3	-3	4660
42	4	8	5081
43	-4	-2	·
44	-2	1	3608
45	4	-7	?
46	-1	-9	3377
47	7	11	3896
48	8	-3	6138&4302

Other records.
item	SMILES	PrP 5UTR inh	Sa RN4220 lethal	Mtb hypoxia inh	Mtb hypoxia inh growth
49	Cc1cc(=O)oc(C)c1C(=O)NCc1ccc(F)cc1	·	2.3	4	2
50	O=C(NN=Cc1cccc([N+](=O)[O-])c1)c1ccccc1-n1cccc1	·	8.0	5	5
51	O=C1CSc2ccccc2N1Cc1ccc(F)cc1	-11	2.6	6	1
52	COCCn1cnc2c(c1=O)c1nc3ccccc3nc1n2N=Cc1cccc(OC)c1	·	3.3	4	6
53	COc1ccc(-c2nnc(SCc3nnc(-c4ccccc4)o3)n2C)cc1OC	-12	5.0	8	9
54	CCNC(=O)C1CC(=O)N(Cc2ccc(F)cc2)C(=Nc2ccc(OC)cc2)S1 (configuration not stated)	-29	2.1	-5	1
55	COC(C[C@@H](O)CC(=O)[C@@H](C)OCc1ccccc1)OC	-15	·	·	·
56	c1ccc(CCn2nnnc2C(c2cccnc2)N2CCOCC2)cc1 (configuration not stated)	-21	5.3	-9	-1
57	CCCN(CCC)C(=O)COc1cc(=O)n(CC)c2ccccc12	-21	1.1	·	·
58	COCCNC(=S)N1CCN(C/C=C/c2ccccc2)CC1	-13	-0.8	17	5
59	COc1ccccc1-n1c(CNCC2CCCO2)nc2ccccc2c1=O (configuration not stated)	-14	3.6	7	4
60	Cc1sc2ncnc(SCC(=O)NC(C)(C)C)c2c1C	-15	4.7	-1	3

item	ugtP null kill	BJeLR lethal	Bead autofluor
49	4	-1	11176
50	6	·	·
51	11	-2	21142*
52	-14	·	·
53	-1	-16	4081
54	-5	3	10071
55	·	-1	2950
56	5	4	4710
57	-5	1	5229
58	6	20	4372
59	1	-4	6843
60	1	-2	4860

The list goes on.
item	SMILES	PrP 5UTR inh	Sa RN4220 lethal	Mtb hypoxia inh	Mtb hypoxia inh growth
61	COc1ccc(-c2cc(C(=O)Nc3ccccc3SC)no2)cc1	-29	2.5	14	8
62	CSc1ncccc1C(=O)OCC(=O)NC(=O)NCCC(C)C	-10	4.6	3	4
63	Cc1cccc(Cn2c(C(=O)OC(C)C)cc3c2ccn3C)c1	-7	-2.6	12	16
64	O=C(OCc1c(-c2ccccc2)ncc2ccccc12)N1CCOCC1	-27	5.1	-5	3
65	COc1ccc(-n2c(O)c(C(C)=NCCCn3ccnc3)c(=O)[nH]c2=O)cc1	3	2.3	0	-8
66	CCC(C)(C)NC(=O)Cn1c(-c2ccc(C)cc2)noc1=O	-9	2.6	-9	5
67	COC(=O)c1cc(CNC(=O)c2ccc(N3CCCC3)c([N+](=O)[O-])c2)ccc1OC	-11	0.0	0	2
68	Cc1cc(OCc2cc3c(cc2Cl)OCO3)c2c(C)cc(=O)oc2c1	5	5.1	3	-1
69	CCOc1cc2c(cc1C=O)OC(C)C2 (configuration not stated)	-12	1.5	17	10
70	O=C(O)CCC(=O)Nc1nc2nc(-c3ccccc3)cc(-c3ccccc3)n2n1	-10	·	·	·
71	CCN(CC)C(=O)[C@H]1CC(CC(=O)NCCN2CCOCC2)C(=O)N2CCc3c([nH]c4ccccc34)[C@]12C (some centres not stated)	-12	1.0	1	2
72	O=C(c1ccco1)N1CCN(C(c2coc3ccc(Cl)cc3c2=O)c2nnnn2C2CCCC2)CC1 (configuration not stated)	-8	4.2	5	-6

item	ugtP null kill	BJeLR lethal	Bead autofluor
61	2	-7	3844
62	3	-4	4232
63	80	13	3041
64	-1	·	3679
65	5	1	17270*
66	-4	0	3498
67	2	-5	5513
68	-5	3	2356
69	1	2	3346
70	·	-1	2571
71	8	·	3870
72	-3	0	3242

Additional structures follow.
item	SMILES	PrP 5UTR inh	Sa RN4220 lethal	Mtb hypoxia inh	Mtb hypoxia inh growth
73	CCC(=O)N(CCC1(c2ccccc2OC)CCOC(C(C)C)C1)Cc1ccco1 (configuration not stated)	-16	5.2	3	-3
74	CCCSc1nnc(Cn2c(=O)sc3ccccc32)n1-c1ccccc1	-42	4.5	·	·
75	COc1ccc(/C=C/C(=O)NCCC(=O)N2CCCN(C)CC2)cc1	2	2.9	7	-4
76	CCCCN1CC(COc2ccccc2)OC1=O (configuration not stated)	-19	8.2	·	·
77	COc1ccc(S(=O)(=O)N2CCN(C(=O)CN3C(=O)NC(C)(C)C3=O)CC2)cc1	-14	2.4	1	-5
78	COc1ccccc1/C=N/NC(=O)c1ccc(=O)n(C)c1	-20	·	·	·
79	Cn1ccnc1SCC(=O)Nc1ccc(SC(F)F)cc1	-36	4.6	23	49

item	ugtP null kill	BJeLR lethal	Bead autofluor
73	10	-7	4164
74	0	5	5493
75	-1	3	4249
76	6	-5	10376
77	3	·	2975
78	·	-14	1981
79	6	·	3487
